Source: PubChem (National Center for Advancing Translational Sciences (NCATS))
VDR inhibitor – Inhibitors of the vitamin D receptor (VDR): qHTS | Vitamin D3 receptor (Homo sapiens), P11473 | VDR-SRC2-3 peptide fluorescence polarization, 2 h | AID 504847, 2011 | Potency, µM, without a hit: max response, negative = inhibition, actives largely listed as inhibitors | 400,000 compounds, 0.93% hits; active = well fitted inhibition curve with a large enough effect; inconclusive = small, poorly fitted or top-dose-only effect, or another doubt; inactive = no such curve, though single readings can be large or run the other way; also: series mostly up to about 120 µM
Target sequence (P11473 whole entry, looked up): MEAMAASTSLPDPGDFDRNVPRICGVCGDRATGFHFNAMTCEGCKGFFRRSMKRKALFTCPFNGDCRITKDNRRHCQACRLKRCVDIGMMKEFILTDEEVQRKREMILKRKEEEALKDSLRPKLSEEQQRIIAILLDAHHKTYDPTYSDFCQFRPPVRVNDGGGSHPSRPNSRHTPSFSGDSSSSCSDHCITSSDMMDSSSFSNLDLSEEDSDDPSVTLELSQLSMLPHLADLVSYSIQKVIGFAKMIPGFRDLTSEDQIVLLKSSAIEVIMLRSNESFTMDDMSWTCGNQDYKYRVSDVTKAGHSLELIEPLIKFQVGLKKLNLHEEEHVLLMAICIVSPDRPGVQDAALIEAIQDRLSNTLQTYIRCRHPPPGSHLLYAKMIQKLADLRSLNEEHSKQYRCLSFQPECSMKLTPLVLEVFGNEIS
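Signal is fluorescence polarization, reporting how far test compounds block the interaction of VDR with the SRC2-3 coregulator peptide after a 2 h room-temperature incubation.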
An asterisk follows results filed as active; ? = inconclusive; & = joins results of further samples. % is scaled to controls: 0 for no effect and ±100 for the full control effect; potency is read from the fitted curve at half-maximal effect. A portion of the library; the hit share may differ from the screen's.

SMILES	VDR inhibitor
COc1ccc2[nH]c(=O)c(C(c3nnnn3CC3CCCO3)N3CCCCC3)cc2c1 (centres undefined)	-15%
COc1cc(C2C(=O)N(C3CCCCC3)CC(=O)N2C2CCCCC2)ccc1OC(C)C (centres undefined)	-7%
N#Cc1ccc(C2=CC(=O)C[C@H](c3ccc(Cl)cc3)C2)cc1	-3%
O=C(c1ccc(S(=O)(=O)Nc2ccccc2F)cc1)N1CCC1	-12%
CCCN1CNc2c(c(=O)[nH]c(=S)n2CCc2ccc(C)cc2C)C1	-5%
COCCNS(=O)(=O)c1ccc(OCC(=O)N2CCc3ccccc3C2)c(Cl)c1	-24%
O=C(CCS(=O)(=O)c1ccccc1Cl)Nc1ccc(S(=O)(=O)Nc2ncccn2)cc1	-2%
NCCc1nnc(SCc2ccccc2Cl)o1	8%
CCOc1ccccc1-n1nnnc1SCC(=O)NC(=O)NCc1ccco1	17%
CCN1CCN(c2nc3c(c(=O)n(C)c(=O)n3C)n2Cc2cccc3ccccc23)CC1	-8%
CCN1C(=O)c2cccc3c(S(=O)(=O)NCCCN4CCOCC4)ccc1c23	7%
COc1ccccc1NC(=O)Nc1nc(C(C)(C)C)cs1	6%
CCC(=O)N(Cc1cc2cc(C)c(C)cc2[nH]c1=O)C1CCCCC1	-10%
COc1ccc(CCC(=O)NCCc2csc(-c3ccc(F)cc3)n2)cc1	1%
COc1cc(OC)c(C(=O)O/N=C(\N)c2ccc(C)cc2)cc1OC	2%
COc1ccc2oc(=O)c(C(=O)NCc3ccco3)cc2c1	-3%
O=C(CCC(=O)c1ccccc1)Nc1ccccc1OC(F)F	-1%
Cc1ccc2nc3sc(C(=O)N4CCOCC4)c(N)c3cc2c1	-2%
O=C(Nc1nncs1)c1ccccc1Br	15%
CC(Cl)C(=O)NC(=O)NC12CC3CC(CC(C3)C1)C2 (centres undefined)	-1%
O=C(NC1CCCC1)c1ccc2c(c1)S(=O)(=O)c1ccccc1C2=O	-18%
CCOC(=O)c1c(C)nc2cc(C)ccn12	-13%
COc1ccc(CN2C(=O)C(C)=C(C)C2OC)cc1 (centres undefined)	-1%
O=C1NC(=O)C(Cc2ccc(OCCN3COc4ccccc4C3=O)cc2)S1 (centres undefined)	-19%
COc1ccc(/C=C/c2nc(-c3ccccc3O)n[nH]2)cc1	-2%

Reformatted bar-delimited: entries from further up
molecule | VDR inhibitor
NCCc1nnc(SCc2ccccc2Cl)o1 | 8%
CCCN1CNc2c(c(=O)[nH]c(=S)n2CCc2ccc(C)cc2C)C1 | -5%
COc1ccccc1NC(=O)Nc1nc(C(C)(C)C)cs1 | 6%
COc1ccc(CCC(=O)NCCc2csc(-c3ccc(F)cc3)n2)cc1 | 1%

Further structures:
SMILES	VDR inhibitor
COc1cccc(-c2cccc(NC(=O)C3CCN(Cc4cnn(C)c4)CC3)c2)c1	-4%
COc1ccc(C2C3=C(N=C4SCC(=O)N42)c2ccccc2CC3)cc1 (centres undefined)	-2%
CCOC(=O)N1CCN(C(=S)NC)CC1	-3%
O=C(Nc1ccc(-c2nc3cccnc3s2)cc1)c1ccc(Cl)nc1	10%
Cc1nn(C(=O)c2ccco2)c(C)c1Sc1ccc(Cl)cc1	4%
CC1(C)CC2CC(C)(CN2C(=O)COC(=O)c2cccc([N+](=O)[O-])c2)C1 (centres undefined)	-1%
CC(=O)N1CCN(Cc2ccc(Br)s2)CC1	-3%
COc1ccccc1/C=C/C(=O)Nc1ccc(N2CCOCC2)cc1	-10%
COc1ccccc1C(=O)NCCC(=O)N1CCCCC1	-23%
CCn1ncc([N+](=O)[O-])c1C(=O)n1nc(C)cc1C	2%
CC(C)c1nnc(NC(=O)c2cccc(NC(=O)C(F)(F)F)c2)s1	1%
COc1ccc(C2NC(=O)c3sc(=S)n(-c4ccccc4)c3N2)cc1 (centres undefined)	79µM*
COc1ccc2[nH]c(=O)c(CN(Cc3cccs3)Cc3nnnn3Cc3ccccc3)cc2c1	7%
COCC1=C2c3ccccc3[C@H](C[N+](=O)[O-])C(C(=O)OC)(C(=O)OC)CC2C2C(=O)N(c3ccccc3)C(=O)C2C1 (some centres undefined)	6%&-4%
O=C(COC(=O)c1c2c(nc3ccccc13)/C(=C/c1ccco1)CC2)NC1CCCC1	-7%
CCC(C)Sc1nnc(CNS(=O)(=O)c2ccc(F)cc2)n1C (centres undefined)	-5%
COCCCNC(=O)c1ccc(-c2nc3ccccc3nc2-c2ccccc2)cc1	13%
O=C1CC(N2CCN(c3ccc(C(=O)c4ccc(F)cc4)cc3)CC2)C(=O)N1 (centres undefined)	3%
CCN1CCCC1CN(Cc1cc2ccc(C)cc2[nH]c1=O)C(=S)Nc1ccc(OC)cc1OC (centres undefined)	8%
C/C(=N\OCC(=O)OCC(=O)NC(=O)c1ccccc1)c1ccc2c(c1)OCO2	6%
Clc1ccc(Cn2cc(/C=N/n3cnnc3)c3ccccc32)c(Cl)c1	14%
COc1cc(C(=O)OCCc2c(C)nc3nc[nH]n3c2=O)cc(OC)c1OC	10%
COC(=O)c1cccc(-c2noc(-c3ccccc3F)n2)c1	2%
Cc1ccc(NC(=O)CCN2CCN(CCO)CC2)cc1	-6%
Cc1csc(=O)n1CCC(=O)OCC(=O)NNC(=O)c1ccc(Br)cc1	-10%
Next compounds.
SMILES	VDR inhibitor
Cc1c(NC(=O)CSc2nnc(-c3ccco3)n2-c2ccccc2)c(=O)n(-c2ccccc2)n1C	24%
CCc1ccc(Cn2nnc(C(=O)Nc3ccc(OC)cc3OC)c2N)cc1	1%
O=C(NCC(=O)N(c1ccccc1)C(C(=O)NCC1CCCO1)c1ccccc1)c1cccs1 (centres undefined)	-4%
Cc1ccccc1C(=O)NCCc1sc(-c2ccc(Cl)cc2)nc1C	5%
Cc1cc(OCC(=O)OCC(=O)NCCN2C(=O)CSC2=O)ccc1Cl	-5%
O=c1c2sccc2nc(SCc2cc(=O)n3cc(Cl)ccc3n2)n1Cc1ccccn1	-12%
COc1ccc(CCNS(=O)(=O)c2ccc(N3CCCCS3(=O)=O)cc2)cc1OC	9%
Fc1ccc(C(c2nnc(-c3ccccc3)o2)N2CCN(c3cccc(Cl)c3)CC2)cc1 (centres undefined)	15%
Cc1nn(CC(=O)N2CCOCC2)c(C)c1[N+](=O)[O-]	-4%
CC(=O)c1ccc(Sc2ccc(C(C)=O)cc2)cc1	-1%
CCc1[nH]nc2c1C(Cc1ccccc1)C(C#N)=C(N)O2 (centres undefined)	2%
CCc1cccc(C)c1NC(=O)Cn1cc2c(n1)CCCC2	15%
Cc1ccc(C)c(N(C)C(=O)COc2cc(=O)n(C)c3ccccc23)c1	-24%
O=C(CN(Cc1ccccc1C(F)(F)F)C(=O)CNC(=O)c1ccco1)NC1CCCC1	13%
Cc1nn(Cc2ccccc2)c(C)c1NC(=O)CSc1nc(-c2ccccc2)nc2c1cnn2-c1ccccc1	-1%
COc1ccc(COC(=O)C2=C(C)NC(=O)NC2c2ccccc2OC(C)C)cc1 (centres undefined)	-17%
Cc1nc(Cc2ccccc2)sc1CC#N	-21%
COc1cccc(NC(=O)CN(C)C(=O)CCN2C(=O)C3CC=CCC3C2=O)c1 (centres undefined)	7%
CCc1nn(-c2cc(Oc3ccccc3)nc(-c3ccccc3)n2)c(N)c1C#N	9%
Cc1ccc(NC2CCCN(C(=O)CCCN3CCCCC3=O)C2)cc1C (centres undefined)	-2%
Cc1c(CCO)c(=O)n(-c2ccccc2)n1S(=O)(=O)c1ccc([N+](=O)[O-])cc1	-9%
COc1cc(C(=O)OCC(=O)Nc2ccc(C)cc2)cc(OC)c1OC	-1%
CC(=O)N1c2ccc(S(=O)(=O)N3CCC(C(=O)NCc4ccc(F)cc4)CC3)cc2CC1C (centres undefined)	-15%
COc1cc(C2NCC(c3ccc(Cl)cc3Cl)c3c2[nH]c2ccccc32)cc(OC)c1OC (centres undefined)	-12%
COc1cc(C(=O)NC(=S)NNC(=O)c2cnccn2)cc(OC)c1OC	-17%
Carrying on.
SMILES	VDR inhibitor
S=C(Nc1ccccc1)N1N=CCC1c1ccccc1 (centres undefined)	-10%
COc1cccc(-c2nc(SCC(=O)Nc3nc(-c4ccccc4)c(C)s3)[nH]c(=O)c2C#N)c1	-13%
C=CCNc1nc(C(=O)OCC)nc2ccccc12	-6%
O=C(CCCCn1c(=S)[nH]c2ccsc2c1=O)NCc1ccco1	-13%
Cc1cc(C(=O)Nc2ccccc2)c2ccccc2n1	-12%
COCCn1c(SCC(=O)Nc2ccc3c(c2)OCCO3)nnc1-c1c[nH]c2ccccc12	11%
COc1ccccc1N1C(=O)c2cccc3c(N(C)CCO)ccc(c23)C1=O	16%
COc1cc(OC)cc(C(=O)NCCc2ccc(OC)c(OC)c2)c1	2%
Cc1cc(C)n(CCNC(=O)c2cc(COc3c(F)cccc3F)on2)n1	-7%
CCCC(=O)NNc1c2ccccc2nc2ccccc12	-19%
O=C(/C=C/Nc1cccc(O)c1)c1ccccc1	8%
CN(C)C(=O)COC(=O)c1ccccc1Sc1ccccc1C#N	-8%
CCCOc1cccc(C(=O)N2CCN(C(=O)C3CCCO3)CC2)c1 (centres undefined)	-15%
COc1ccc(-c2nn(Cc3ccccc3)cc2C(=O)N2CCN(c3ncccn3)CC2)cc1	0%
COc1ccc(NS(=O)(=O)c2ccc(O)c(NC(=O)c3cc4c(C)nn(-c5ccc(F)cc5)c4s3)c2)cc1	-11%
CCC(C)NC(=O)c1ccccc1NC(=O)CN(c1ccc(OC)cc1)S(C)(=O)=O (centres undefined)	-11%
Cc1cc(NC(=O)CSc2ccnc(=O)[nH]2)no1	1%
CCC1(C)NC(=O)N(CC(=O)Nc2sc3c(c2C(N)=O)CCC3)C1=O (centres undefined)	17%
O=C(O)c1cc2nc3c(c(C(F)(F)F)n2n1)CCCC3	5%
Cc1occc1C(=O)NNC(=O)Nc1ccc([N+](=O)[O-])cc1	-7%
COc1cc(OC)c(NC(=O)C2CC(=O)N(c3ccc4c(c3)OCCO4)C2)cc1Cl (centres undefined)	5%
Cc1nc2cccnc2nc1C	4%
COc1cccc(C2Nc3ccccc3NC3=C2C(=O)CC(C)(C)C3)c1 (centres undefined)	-3%
Cc1ccc(NC(=O)CN(C)C2CCCCC2)cc1Cl	-3%
COCC(N)(c1ccccc1)c1nc2ccccc2n1C (centres undefined)	16%
Continuation.
SMILES	VDR inhibitor
C=CCn1cnc2c(nnn2Cc2ccc(F)cc2)c1=O	-8%
Cc1ccc(NC(=O)c2ccc(NS(=O)(=O)c3c(C)noc3C)cc2)cc1C	-6%
CCc1ccc(-c2nn(-c3ccc(OC)cc3)c3c2cnc2ccc(OC)cc23)cc1	4%
CCOc1cc(N2CCOCC2)c(OCC)cc1NC(=O)CN1CCSC1=O	3%
CN(CC(=O)Nc1nc2ccc(F)cc2s1)S(=O)(=O)c1ccc(Cl)cc1	?
Cc1ccc(N/C=C/C(=O)c2cccs2)cc1	-2%
CC(C)CN(CC(C)C)c1nnc(NC(=O)Nc2cccc(C(F)(F)F)c2)s1	8%
CN(C)S(=O)(=O)c1cccc(COC(=O)c2ccc3c(c2)OCO3)c1	16%
Cc1ccc(C)c(SCC(=O)NC(=O)Nc2ccc3c(c2)OCCO3)c1	0%
O=C(O)[C@H](CO)Nc1ncnc2sc3c(c12)CCC3	7%
COc1cc(NC(=O)CCN2CCN(c3ccccc3)CC2)cc(OC)c1	11%
COc1cc(-c2ccc3c(=O)c4ccccc4n(C)c3c2)cc(OC)c1OC	5%
COc1cccc(-n2cnc3sc4c(c3c2=O)CCC4)c1	-10%
COc1cccc(OCC(O)CNC(C)c2ccccc2)c1 (centres undefined)	-4%
O=C(NCc1ccco1)C1CC(c2ccccc2C(F)(F)F)=NO1 (centres undefined)	?
CC1CCN(c2nc(-c3cccnc3)nc3scc(-c4ccccc4)c23)CC1	18%
COc1ccc(-n2nc(C(=O)N(C)c3cc(Cl)ccc3OC)c3c4ccccc4n(C)c3c2=O)cc1	-3%
Cc1ccc(C)c(CN2C(=O)c3ccccc3S(=O)(=O)c3ccc(C(=O)N(C)C4CCCCC4)cc32)c1	5%
COc1ccc(/C(C)=N/NC(=O)CNC(=O)c2ccncc2)cc1	-17%
CNS(=O)(=O)c1ccc(NC(=O)c2cc(-c3ccncc3)nc3ccc(Cl)cc23)cc1	4%

As entered above:
CN(C)S(=O)(=O)c1cccc(COC(=O)c2ccc3c(c2)OCO3)c1 in VDR inhibitor is listed with 16%
Cc1ccc(NC(=O)c2ccc(NS(=O)(=O)c3c(C)noc3C)cc2)cc1C in VDR inhibitor is listed with -6%
COc1ccc(-n2nc(C(=O)N(C)c3cc(Cl)ccc3OC)c3c4ccccc4n(C)c3c2=O)cc1 in VDR inhibitor is listed with -3%

5 neighbouring entries already listed:
SMILES	VDR inhibitor
CC(=O)N1c2ccc(S(=O)(=O)N3CCC(C(=O)NCc4ccc(F)cc4)CC3)cc2CC1C (centres undefined)	-15%
COc1cc(C2NCC(c3ccc(Cl)cc3Cl)c3c2[nH]c2ccccc32)cc(OC)c1OC (centres undefined)	-12%
COc1cc(C(=O)NC(=S)NNC(=O)c2cnccn2)cc(OC)c1OC	-17%
S=C(Nc1ccccc1)N1N=CCC1c1ccccc1 (centres undefined)	-10%
COc1cccc(-c2nc(SCC(=O)Nc3nc(-c4ccccc4)c(C)s3)[nH]c(=O)c2C#N)c1	-13%

Arranged by the number under VDR inhibitor (smallest number first): four of the compounds above.
SMILES	VDR inhibitor
COc1cccc(-n2cnc3sc4c(c3c2=O)CCC4)c1	-10%
Cc1ccc(NC(=O)c2ccc(NS(=O)(=O)c3c(C)noc3C)cc2)cc1C	-6%
CCOc1cc(N2CCOCC2)c(OCC)cc1NC(=O)CN1CCSC1=O	3%
COc1cc(NC(=O)CCN2CCN(c3ccccc3)CC2)cc(OC)c1	11%
